From PubChem
HCMV UL50-53 inh = disrupts HCMV UL50-UL53 complex binding; inhibition, % (test concentration not listed); HTRF UL50-UL53 interaction, normalized percent inhibition; 190,000 compounds, 0.15% hits;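 active = both replicates at 50% or more, plus weaker picks with an unusually low signal ratio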;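 also: stock transfer was 100 nL into about 20 µL; 0% = negative control wells and 100% = wells with untagged competitor protein; inactives centre near -12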
GIV Gai3 FP = inhibitors of GIV GBA-motif binding to rat Galpha-i3; percent of control (FP), % (concentration not given with the values); Galpha-i3/FITC-GIV peptide fluorescence polarization, 90 min; active compounds read low; scaled: aluminum fluoride 0%, vehicle 100%; AID 1224905; P08753; 210,000 compounds, 0.42% hits;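 active = replicate mean at 85% of control or lower, very high polarization wells dropped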;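 also: wells of about 15 µL received 100 nL stock; the first replicate is given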
Target sequence (P08753 whole entry, looked up): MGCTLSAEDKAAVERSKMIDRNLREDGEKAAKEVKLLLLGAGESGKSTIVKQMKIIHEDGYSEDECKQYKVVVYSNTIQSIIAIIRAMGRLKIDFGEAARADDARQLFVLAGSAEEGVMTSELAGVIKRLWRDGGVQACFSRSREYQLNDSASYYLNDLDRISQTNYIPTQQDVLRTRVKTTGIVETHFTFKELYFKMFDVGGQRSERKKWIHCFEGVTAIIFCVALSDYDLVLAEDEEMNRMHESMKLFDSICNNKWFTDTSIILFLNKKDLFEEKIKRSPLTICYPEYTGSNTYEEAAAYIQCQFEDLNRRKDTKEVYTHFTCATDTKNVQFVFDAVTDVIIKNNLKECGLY
Sa growth 42C = blocks Staphylococcus aureus growth | 170,000 compounds, 0.53% hits | S. aureus RN4220 growth, OD600, 20 h, 42 °C; active compounds read low | relative growth, % (no concentration beside the values);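 active = growth at 42 °C up to 50% and 20 or more points under that at 30 °C, or under 10% at both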;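 also: 300 nL library stock went into each well; scaled to the means of positive and negative controls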
Sa growth 42C second temp = further read-out of Sa growth 42C, marked with its call; relative growth, %; measured here: growth at 30 °C;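 optical density after 20 h as mean of two plates; 100% = untreated growth and lower means inhibition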
The depositor's hits bear a star; . = not tested or not shown.

item	Structure	GIV Gai3 FP	Sa growth 42C second temp	Sa growth 42C	HCMV UL50-53 inh
1	Cn1cc(C=Nc2ccccc2)c2ccccc21	.	82	114	-26
2	CCc1ccccc1NC(=O)CCC(=O)N1CCCn2nc(C)cc21	105	82	103	-22
3	COc1cc(-c2nc3cnccn3c2Nc2ccc(C(C)C)cc2)ccc1O	104	89	95	-6
4	COc1ccc2[nH]cc(CCNC(=O)CN3C(=O)CSc4cccn4-c4ccccc43)c2c1	105	.	.	-32
5	CC(=O)Nc1ccc(C)cc1-c1nc2ccccc2n(CC(=O)Nc2cc(Cl)ccc2C)c1=O	100	86	88	-21
6	CCCn1nnc(NCc2ccc(-c3ccc(Cl)cc3Cl)o2)n1	101	.	.	-10
7	Cc1ccc(N2C(=O)N(Cc3cc(=O)n4ccsc4n3)C(=O)C2C)cc1 (stereo unspecified)	.	96	88	-15
8	CCN1C(=O)C2(c3ccccc31)c1c(oc3ccc(C)cc3c1=O)C(=O)N2CC1CCCO1 (stereo unspecified)	105	.	.	-37
9	O=C(Cn1nc(-c2ccccc2)ccc1=O)NCC1COCCO1 (stereo unspecified)	106	93	127	-13
10	OCCN(CCO)c1nc2ccccc2[nH]1	104	86	137	3
11	N#Cc1ccc(COC(=O)CC2CCCC2)cc1	.	92	107	-4
12	CCC(Sc1c[nH]c2ccccc12)C(=O)O (stereo unspecified)	106	94	96	-3
13	CC(=O)N(Cc1cc2ccccc2[nH]c1=O)C1CCCCC1	98	86	92	-24
14	CCOc1ccc(NC(=O)CSc2nnnn2C2CCCC2)cc1	101	90	90	7
15	CCN(CC)S(=O)(=O)c1ccc(NC(=O)COC(=O)Cc2cccs2)cc1	.	100	109	-16
16	Cc1oc2c(c1C(=O)NCCc1ccccc1)C(=O)c1ccccc1C2=O	104	11	15	.
17	O=C(CN1CCC(n2nnc3cc(C(F)(F)F)ccc32)CC1)N1CCc2ccccc21	107	98	89	14
18	CCOc1nc2ccccc2c(=O)n1Cc1ccccc1	105	103	106	4
19	O=C1CC(c2ccccc2)S(=O)(=O)c2ccccc21 (stereo unspecified)	96	75	94	-4
20	O=C(O)CCN=CC1=C(O)CC(c2ccccc2)CC1=O (stereo unspecified)	.	93	86	2
21	CCOC(=O)Cn1nc(-c2cccs2)c(C#N)c1SC	103	96	107	-9
22	CN(C)C(=O)NC1C=CS(=O)(=O)C1 (stereo unspecified)	99	92	101	-2
23	CC(C)CCNC(=O)CN(C)S(=O)(=O)c1ccc2c(c1)c(=O)n(C)c(=O)n2C	99	.	.	-32
24	N#Cc1ccc(S(=O)(=O)N2CCNC(=O)C2CC(=O)Nc2cc(Cl)ccc2Cl)cc1 (stereo unspecified)	106	86	96	-22
25	CC(=O)Nc1c(O)c2ccccc2oc1=O	.	84	119	-2
26	O=C(CC1CCN(C(=O)NC2CCCCC2)CC1)N1CCOCC1	98	.	.	-16
27	COC(C(=O)Nc1ccccc1C(=O)N1CCOCC1)c1ccccc1 (stereo unspecified)	103	94	107	-11
28	Cc1ccc(CCNC(=O)c2ccc(CS(=O)(=O)Cc3ccc(Cl)cc3)o2)cc1	110	80	96	.
29	CCCn1cc(S(=O)(=O)c2ccc(OCC)cc2)c(=O)c2cc(C)ccc21	105	84	95	-37
30	OCCn1c(CSc2ccccc2)nc2ccc(Cl)cc21	.	75	99	6
31	O=C(Nc1ccnc(-c2cccnc2)n1)c1cccc(C(F)(F)F)c1	99	.	.	-13
32	N#CC(C#N)=C(C#N)c1ccco1	124	78	96	13
33	Cc1ccc(Cl)cc1N1CCN(c2ncnc3onc(C)c23)CC1	101	93	79	.
34	Cc1cccc(-c2nc(C)c(CCNS(=O)(=O)c3ccc(F)c(C(F)(F)F)c3)s2)c1	98	66	108	.
35	O=C(Oc1ccccc1C(=S)N1CCOCC1)c1ccccc1	101	80	109	.
36	Cc1cccc(NS(=O)(=O)c2ccc3[nH]c(=O)cc(C)c3c2)c1	100	74	98	-8
37	CCC(=O)N1c2ccc(S(=O)(=O)N3CCCCCC3)cc2CC1C (stereo unspecified)	103	98	120	-19
38	CN(C(=O)CCOc1ccccc1)c1c(N)n(Cc2ccccc2)c(=O)[nH]c1=O	.	93	67	-18
39	CCOC(=O)c1cnc2c(C)cc(C)cc2c1NCCN1CCOCC1	102	88	100	-51
40	N#C/C=C1/NC(=O)CS1	.	85	100	-14

One compound at a time (already shown).
Results for CN(C(=O)CCOc1ccccc1)c1c(N)n(Cc2ccccc2)c(=O)[nH]c1=O = GIV Gai3 FP = .; Sa growth 42C second temp = 93; Sa growth 42C = 67; HCMV UL50-53 inh = -18
Results for CCOC(=O)c1cnc2c(C)cc(C)cc2c1NCCN1CCOCC1 = GIV Gai3 FP = 102; Sa growth 42C second temp = 88; Sa growth 42C = 100; HCMV UL50-53 inh = -51

New compounds follow:
item	Structure	GIV Gai3 FP	Sa growth 42C second temp	Sa growth 42C	HCMV UL50-53 inh
41	COc1cc(/C=N/NC(=O)Cc2cn3ccsc3n2)cc(OC)c1O	.	90	104	-46
42	CN(c1ccccc1)N1C(=O)CSC1=S	100	74	54	-10
43	COc1ccc(/C=C(/C#N)c2nc(-c3ccc(Br)cc3)cs2)cc1	107	96	99	-34
44	CCCN(CCC)CC(O)Cn1cc(/C=C/C(=O)c2ccc(C)cc2)c2ccccc21 (stereo unspecified)	124	80	77	-8
45	COc1cccc(OC)c1C(=O)OCC(=O)c1cc2ccccc2o1	.	87	87	-60
46	O=C(Cc1coc(-c2ccc(F)cc2)n1)NCc1ccccc1	100	86	95	-20
47	CN(C)c1ccc(/C=C2\C(=N)N3N=C(S(C)(=O)=O)SC3=NC2=O)cc1	277	68	76	-100
48	Cc1cc(OCC(O)CN2C(C)CCCC2C)ccc1C(C)C (stereo unspecified)	.	89	102	-10
49	COc1c(C)cnc2c1c(=O)n(CC(=O)N1CCC(Cc3ccccc3)CC1)c(=O)n2C	102	.	.	-2
50	CC(=O)N1CCC2(CC1)C(C#N)=C(N)SC(N)=C2C#N	105	89	98	0
51	CCOC(=O)C1CCN(CN2C(=O)C3(SCC(=O)N3c3cccc(Cl)c3)c3ccccc32)CC1 (stereo unspecified)	101	85	91	-25
52	O=C(OCCS(=O)(=O)c1ncccc1C(F)(F)F)c1cccc(Cl)c1	102	82	111	-2
53	CCOc1ccc(CCNc2ncnc3onc(-c4ccc(F)cc4)c23)cc1OCC	100	85	96	.
54	Cc1ccc(NCN2C(=O)c3ccccc3C2=O)cc1	98	89	90	-30
55	CCCCN(C)CCCNC(=O)C1CCN(c2nc3ccc(CC)cc3s2)CC1	97	89	123	-3
56	CCCNCc1cc(=O)n2[nH]c(-c3ccccc3)nc2n1	96	.	.	-21
57	Cc1cccc(NC(=O)Cn2c(SCC(=O)NCc3ccccc3)nc3ccccc32)c1C	108	81	101	.
58	CC(C(=O)OCC(=O)c1ccc(Br)cc1)N1C(=O)C2C3C=CC(C3)C2C1=O (stereo unspecified)	102	.	.	-21
59	CCc1ccc(NC(=O)CSc2ccccc2)cc1	92	95	92	9
60	Cc1ccc(C)c(CN2C(=O)c3ccccc3S(=O)(=O)c3ccc(C(=O)N4CCN(C)CC4)cc32)c1	109	83	109	10
61	CC(C)(C)c1ccc(C(=O)Nc2ccc(NC(=O)c3ccc(Cl)c(Cl)c3)cc2)cc1	101	104	101	7
62	O=C(NCc1cn2ccsc2n1)C1c2ccccc2Oc2ccccc21	.	89	96	-10
63	CC1(C)CC(N2CCCC2)=C/C(=N/NC(=O)c2cccnc2)C1	.	84	65	-20
64	CCC(=O)n1nc(-c2ccc(C)c(C)c2)nc1N	106	.	.	-9
65	CCn1c(CNC(=O)c2ccc(OC)cc2)nnc1SCC(=O)Nc1ccc(C)cc1	103	95	102	1
66	CC(C)(Oc1ccc(Br)cc1)C(=O)O	.	95	98	-17
67	COc1ccc2c(ccn3cc4c(c(=O)n(C)c(=O)n4C)c23)c1	99	91	82	.
68	Cc1nc2ccccc2nc1N=C(N)NC(=O)c1ccccc1	.	81	116	0
69	CC1(C2CC2)NC(=O)NC1=O (stereo unspecified)	111	100	114	-8
70	CCCCn1c(SCC(=O)NCc2ccc(C)cc2)nc2ccc(N3CCOCC3)cc2c1=O	107	43	73	.
71	Cc1cc(C)cc(-n2c(C)nc3cc(C(=O)O)ccc32)c1	106	92	95	-1
72	O=C(Cn1cc(SCc2ccccc2F)c2ccccc21)N1CCCC1	107	107	101	.
73	CC(NC(=O)c1ccc(CSc2nc3ccncc3n2Cc2ccc(F)cc2)cc1)c1ccccc1 (stereo unspecified)	103	85	113	-20
74	COCCN(Cc1cccs1)S(=O)(=O)c1cc(-c2cc(C)no2)ccc1C	107	91	117	.
75	Cc1nc2ccccc2n1CCc1nc2c3ccccc3nc(SCC(=O)Nc3ccc(C(C)C)cc3)n2n1	103	68	91	.
76	CCOc1cc(/C=C2\N=C(c3ccccc3Cl)OC2=O)cc(Br)c1OC(C)=O	102	.	.	-29
77	O=C(CCc1ccccc1)N1N=C(c2cccc([N+](=O)[O-])c2)CC1(O)C(F)(F)F (stereo unspecified)	101	.	.	-22
78	CCC(C)NC(=O)C1CCN(S(=O)(=O)c2ccc(-n3cnnn3)cc2)CC1 (stereo unspecified)	104	94	87	-18
79	O=C1Nc2ccccc2S/C1=C\C(=O)N1CCCC1	101	84	96	.
80	Cc1cc(N(C)C)n2nc(-c3ccc(Cl)cc3)c(C)c2n1	108	.	.	-25

Quoted at random: 4 records from the list, in no set order.
item	Structure	GIV Gai3 FP	Sa growth 42C second temp	Sa growth 42C	HCMV UL50-53 inh
56	CCCNCc1cc(=O)n2[nH]c(-c3ccccc3)nc2n1	96	.	.	-21
76	CCOc1cc(/C=C2\N=C(c3ccccc3Cl)OC2=O)cc(Br)c1OC(C)=O	102	.	.	-29
54	Cc1ccc(NCN2C(=O)c3ccccc3C2=O)cc1	98	89	90	-30
55	CCCCN(C)CCCNC(=O)C1CCN(c2nc3ccc(CC)cc3s2)CC1	97	89	123	-3

Next records
item	Structure	GIV Gai3 FP	Sa growth 42C second temp	Sa growth 42C	HCMV UL50-53 inh
81	CC1CCC2(CC1)C(C#N)=C(SCC(=O)Nc1ccc(Br)cc1)NC(=O)C2C#N (stereo unspecified)	101	.	.	11
82	CN(C)c1nccc(N(Cc2ccccc2)Cc2ccccc2)c1C#N	109	59	85	5
83	COc1cc2cc(Oc3ccc4ccc(=O)oc4c3)c(=O)oc2cc1O	.	85	79	-14
84	CCCNc1ncnc2c1c(-c1ccccc1)cn2-c1ccc(OC)cc1	103	65	88	.
85	Cc1c(Br)c([N+](=O)[O-])nn1CC(=O)Nc1ccc(Oc2ccc(Cl)cc2)cc1	99	.	.	-14
86	O=C(O)CC1(CC(=O)Nc2nccs2)CCCC1	.	99	135	-8
87	O=C(Nc1csc2ccccc12)N1CCN(C(c2ccccc2)c2ccccc2)CC1	104	94	112	8
88	Nc1nnc(-c2ccccc2)o1	.	83	110	-12
89	CC(C)(C)c1ccc(-c2nnc(N)o2)cc1	104	97	98	-1
90	COc1ccccc1/C=C1\C(=O)NC(=O)N(C2CCCC2)C1=O	102	72	99	.
91	COC(=O)c1scc(C)c1NN1C(=O)C=C(C)C1=O	98	90	94	-31
92	CN1CCC(N(C)C(=O)c2ccc(NS(=O)(=O)c3cccs3)cc2)CC1	.	92	88	-9
93	Cn1ncc(I)c1C(=O)N1CCc2ccccc2C1	104	73	104	-28
94	Cc1ccc(NC(=O)CCC(=O)N2Cc3ccccc3Oc3ncccc32)cc1	100	81	86	.
95	O=C(NCc1ccc2c(c1)OCO2)c1ccc(CN2CC(=O)N3CCCCC3C2=O)cc1 (stereo unspecified)	101	.	.	-6
96	CN(Cc1ccccc1)Cc1c[nH]c2ccccc12	105	83	92	-30
97	O=C(Nc1ccc2c(c1)OCCO2)c1cccc(Nc2ccnc(-c3ccccc3)n2)c1	103	.	.	-13
98	COC(CN(C)S(=O)(=O)c1cccc2cccnc12)OC	101	99	103	.
99	O=c1[nH]c2ccccc2c(=O)n1NC(=S)NC1CC2CCC1C2 (stereo unspecified)	.	100	83	-14
100	Cc1ccc(C)c(NC(=O)c2ccccc2NC(=O)C2CCCO2)c1 (stereo unspecified)	98	98	92	-40
101	CN(C)Cc1ccc(C#N)cc1	.	98	100	6
102	Cc1ccc2c(CC(=O)OCc3ncc(-c4ccccc4)o3)coc2c1	.	93	98	-21
103	COc1ccccc1-c1noc(CSc2nc3ccc(C)cc3[nH]2)n1	110	95	110	5
104	CCOc1cc(C(=O)Nc2ccc3nc(N4CCN(C)CC4)cc(C)c3c2)cc(OCC)c1OCC	107	113	121	29
105	CN(C)c1cccc(C(=O)OCC(=O)C(C)(C)C)c1	.	94	85	-13
106	O=C(NCSCc1cccc(C(F)(F)F)c1)Nc1ccc(F)c(Cl)c1	101	26*	9.0*	0
107	CCSC1=N/C(=C/c2ccsc2)C(=O)N1c1ccccc1	114	95	91	-8
108	Cc1onc(-c2ccccc2)c1C(=O)NC1CCCC1	.	89	103	-9
109	CCCCc1c(C)nc2c(-c3ccc(OC)cc3)c(C)[nH]n2c1=O	105	81	74	-16
110	COc1ccc(S(=O)(=O)N(C)c2ccc(C(N)=O)cc2)cc1OC	99	102	99	-26
111	c1ccc(SCc2nnc3sc(Cc4ccc5c(c4)OCCO5)nn23)cc1	111	.	.	-17
112	O/N=C/c1cn(CC(O)COc2ccc(Cl)cc2)c2ccccc12 (stereo unspecified)	104	93	109	-23
